Screening results (PubChem)
GLA inh pH 4.5 – blocks human alpha-galactosidase A at pH 4.5. activity change, negative = inhibition, % at 105 µM. P06280. 230,000 tested, under 10 active. purified enzyme, 4-MU-alpha-Gal fluorescence, pH 4.5; inconclusive = small, poorly fitted or top-dose-only inhibition, or a rising curve; inactive = flat fitted curve, though single readings scatter; no compound was filed as active;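 further: 0% = full activity with enzyme and -100% = basal without enzyme; dose as in the result columns while the protocol names 77 µM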
Rango complex inh – Rango-importin beta binding inhibition; Q14974; Rango CFP/YFP FRET sensor + importin beta, 45 min; Potency, µM (top dose mostly 92.2 µM), without a hit: top-dose inhibition of complex formation; 0.031% of 340,000 active; active = rising FRET ratio curve, often small or poorly fitted; inconclusive = mostly compound fluorescence or quenching in the first reads; inactive = flat curves in all reads;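 further: potency means the concentration at half of the fitted maximal effect; 0% = DMSO wells and 100% = buffer wells lacking importin beta; nearly all actives have a fitted effect of over 15% in size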
Target sequence (Q14974 whole entry, looked up): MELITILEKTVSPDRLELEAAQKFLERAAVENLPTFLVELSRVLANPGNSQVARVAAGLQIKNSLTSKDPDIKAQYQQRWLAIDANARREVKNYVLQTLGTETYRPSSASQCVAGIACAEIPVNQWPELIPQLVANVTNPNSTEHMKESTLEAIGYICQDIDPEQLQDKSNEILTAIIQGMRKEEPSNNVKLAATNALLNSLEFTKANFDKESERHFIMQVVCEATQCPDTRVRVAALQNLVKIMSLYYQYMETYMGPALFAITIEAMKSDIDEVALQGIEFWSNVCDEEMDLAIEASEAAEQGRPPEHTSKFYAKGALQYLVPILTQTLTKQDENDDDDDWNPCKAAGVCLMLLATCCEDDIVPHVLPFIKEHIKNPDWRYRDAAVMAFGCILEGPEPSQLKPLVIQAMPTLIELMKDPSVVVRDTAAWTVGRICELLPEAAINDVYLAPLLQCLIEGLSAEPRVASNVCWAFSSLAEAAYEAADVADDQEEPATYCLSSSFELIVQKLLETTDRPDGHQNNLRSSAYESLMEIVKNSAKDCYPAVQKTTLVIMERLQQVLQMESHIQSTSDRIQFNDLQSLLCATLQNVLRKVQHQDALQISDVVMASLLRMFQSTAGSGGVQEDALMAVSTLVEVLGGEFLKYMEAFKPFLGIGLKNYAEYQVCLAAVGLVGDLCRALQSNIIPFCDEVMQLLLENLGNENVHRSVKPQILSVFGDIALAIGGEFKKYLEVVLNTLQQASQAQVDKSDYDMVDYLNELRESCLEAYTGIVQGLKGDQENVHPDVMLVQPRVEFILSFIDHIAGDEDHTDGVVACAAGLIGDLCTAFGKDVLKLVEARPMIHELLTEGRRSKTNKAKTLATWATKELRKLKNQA
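FRET biosensor (snurportin 1 IBB flanked by EYFP and cerulean), 50 nM, with compound 5 min, then 0.125 microM importin beta in PBS, 1 mM DTT, 0.02% Tween-20, 0.1% BSA. CFP/YFP ratio read after 45 min at room temperature; pre-read flags interference.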
Rango release inh – inhibitors of RanGTP-induced Rango-importin beta complex dissociation. O95149+P62826. Biochemical FRET Rango-importin beta, RanGTP-induced dissociation. Potency, µM (top dose mostly 46.1 µM), for inactives: at the highest dose activity change, negative = inhibition. 0.071% of 340,000 active. AID 540253; active means falling FRET ratio curve, often poorly fitted, with flat reads before Ran was added; inconclusive means other falling curves, or compound fluorescence or quenching; inactive means flat or rising ratio curve;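 further: potency means the concentration at half of the fitted maximal effect; % of control where 0% means no effect; nearly all actives have a fitted effect of over 45% in size; -100% = wells without RanGTP and RCC1; the record marks most hits as doubtful in a second field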
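Compounds preincubate 5 min with complex of recombinant Rango and importin beta in PBS with 1 mM DTT. Ran (0.6 uM) loaded with 2 mM GTP plus 0.2 uM RCC1 starts dissociation; FRET is recorded 45 min later.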
miR-21 FLuc – raises the signal of a miR-21 reporter. HeLa miR-21 FLuc reporter, luciferase, 48 h. Potency, µM (highest dose often 38.3 µM), inactives show at the highest dose reporter change, positive = more light. 340,000 tested, under 10 active; active = well fitted rising curve with a large enough effect; inconclusive = small, poorly fitted or top-dose-only effect; inactive = no such curve, though single readings can be large or run the other way;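 further: % of control where 0% means no effect; miR-21 action dims this reporter so a rising signal means less miR-21 action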
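Compounds were titrated across several concentrations (up to approximately 40 uM) and incubated 48 hours with HeLa miR-21-FLuc reporter cells (miR-21 target sequence downstream of FLuc, endogenous miR-21). Readout was firefly luciferase luminescence after lytic detection reagent.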
* hit, by the source's call; ? = inconclusive; · = no result given; & = joins results of further samples. An excerpt, so the mix of outcomes need not match the whole.

SMILES	GLA inh pH 4.5	Rango complex inh	Rango release inh	miR-21 FLuc
COc1ccccc1NC(=O)CC(NCCN(C)C)C(=O)O (stereo not given)	4	-1.9%	-10%	0%
COc1ccc(OC)c(CN2CCCC(CCC(=O)N(C)CCc3ccccn3)C2)c1 (stereo not given)	14	1.8%	-12%	-1%
COCCn1c(=O)[nH]c2cc(C(=O)NCCc3ccc(OC)c(OC)c3)ccc2c1=O	-6	0.1%	-11%	3%
CCNC(=O)C(=O)NCC1OCCCN1S(=O)(=O)c1ccc(F)cc1C (stereo not given)	·	-0.2%	1%	-1%
COc1ccc2oc(C)c(C(=O)Cn3ccnc3)c2c1	-4	3.8%	?	-6%
CC(C)c1cc2c(c(O)c1O)[C@@]13CCCC(C)(C)C1CC2OC3=O (stereo not given in full)	·	2.1%	1%	17%
O=C(CC1SC(=Nc2ccc3c(c2)OCCO3)NC1=O)Nc1ccc(F)cc1F (stereo not given)	3	-2.3%	8%	3%
O=C(Nc1cc2c3c(c1)CC(=O)N3CCC2)c1ccc(Cl)cc1	·	-2.7%	9%	·
O=C(O)C1CCN(C(=O)c2cccc3ccccc23)CC1	·	-0.5%	-11%	-5%
CCn1cc(C(=O)O)c(=O)c2cc(F)c(N3CCN(C(=S)NC(=O)c4ccc(F)cc4)CC3)cc21	2	0.5%	3%	-19%
COc1ccc2oc(C(=O)OCC(=O)N(Cc3ccccc3)C(C)C)c(C)c2c1	·	2.7%	0%	·
CCOC(=O)c1c(NC(=O)/C=C/C(=O)O)sc(C)c1-c1ccc(C(C)(C)C)cc1	-5	0.7%	5%	?

5 compounds out of the list, sorted by formula weight, high to low:
SMILES	GLA inh pH 4.5	Rango complex inh	Rango release inh	miR-21 FLuc
COCCn1c(=O)[nH]c2cc(C(=O)NCCc3ccc(OC)c(OC)c3)ccc2c1=O	-6	0.1%	-11%	3%
COc1ccc(OC)c(CN2CCCC(CCC(=O)N(C)CCc3ccccn3)C2)c1 (stereo not given)	14	1.8%	-12%	-1%
O=C(CC1SC(=Nc2ccc3c(c2)OCCO3)NC1=O)Nc1ccc(F)cc1F (stereo not given)	3	-2.3%	8%	3%
CC(C)c1cc2c(c(O)c1O)[C@@]13CCCC(C)(C)C1CC2OC3=O (stereo not given in full)	·	2.1%	1%	17%
O=C(Nc1cc2c3c(c1)CC(=O)N3CCC2)c1ccc(Cl)cc1	·	-2.7%	9%	·

Other results
SMILES	GLA inh pH 4.5	Rango complex inh	Rango release inh	miR-21 FLuc
COc1cccc(NC(=O)Cn2c(=O)oc3cc(S(=O)(=O)N4CCCC4)ccc32)c1	3	-3.0%	1%	1%
O=C1c2ccccc2NC(c2ccncc2)N1c1ccccn1 (stereo not given)	-22	-4.4%	-7%	-6%
C#Cc1ccc(CN2CCCC(C(=O)Nc3ccccc3Oc3cccnc3)C2)cc1 (stereo not given)	·	2.1%	1%	16%
CCOC(=O)c1c(NC(=O)c2ccco2)sc(C(=O)N2CCCC2)c1C	-6	0.0%	1%	-3%
C/C(=N\Nc1ccc([N+](=O)[O-])cc1)c1ccc(O)cc1	-5	?	?	-33%
CCOC(=O)c1sc(=S)n(-c2ccccc2Cl)c1SC	-6	3.7%	3%	0%
CCc1ccc(NC(=O)CSc2nc(=O)n3cc(C)ccc3n2)cc1	·	2.3%	0%	·
COc1ccccc1CCNC(=O)c1ccccc1SCC(=O)N1CCCC1	·	0.5%	10%	·
COc1ccc(NC(=O)N(C)C[C@H]2Oc3c(NC(=O)NC4CCCCC4)cccc3C(=O)N([C@H](C)CO)C[C@@H]2C)cc1	·	1.7%	3%	·
Cc1ccc2c(c1)N(S(=O)(=O)c1ccc3c(c1)NC(=O)CC(=O)N3)CCO2	·	-3.7%	15%	7%&1%
CCC(NC(=O)NCc1ccccc1)(C(F)(F)F)C(F)(F)F	-9	-0.9%	0%	-8%
COCCn1c(=NC(=O)CSC(C)=O)sc2cc(F)ccc21	8	-0.2%	-4%	-1%
O=C(CCc1nc2ccccc2c(=O)[nH]1)Nc1nc(-c2cccs2)cs1	·	-2.4%	0%	·
CCCCN(C(=O)CCNC(=O)NC12CC3CC(CC(C3)C1)C2)c1c(N)n(CCC)c(=O)[nH]c1=O	·	-1.5%	0%	·
Cc1sc(NC(=O)CSc2nnc(-c3ccccc3)o2)c(C#N)c1C	1	-0.1%	-11%	-25%
CCOC(=O)c1cnc2ccc(C(=O)OC)cc2c1Nc1ccc(C(=O)O)cc1	6	1.9%	-1%	-6%
COc1ccc(-c2nnc(SCC(=O)NC3CCCCC3)o2)cc1	·	0.4%	20%	-2%
Cc1ccc2cc(CN(CC3CCCO3)C(=S)Nc3ccccc3)c(=O)[nH]c2c1 (stereo not given)	3	-3.5%	25%	17%
CC(C)OC(=O)CSc1nc2ncccc2[nH]1	1	-0.1%	6%	-2%
Cc1ccc(C(O)CSc2nnc(-c3ccc4ccccc4c3)n2C)cc1 (stereo not given)	-18	-3.0%	-2%	-6%
CC(C)(C)OC(=O)C[C@H]1C/C=C\C[C@H](CC(=O)N(CCO)Cc2ccccc2)C(=O)N[C@@H](c2ccccc2)COC1=O	·	-0.1%	8%	·
CC(=O)c1ccc(OC(C)C)c(Cc2c(O)nc(N)[nH]c2=O)c1	-3	-0.6%	5%	-2%
Cc1[nH]n(-c2ccccc2)c(=O)c1-c1ccc(Cl)cc1	-4	-2.8%	6%	-8%
COc1cc(CNCc2ccc(OC)c(OC)c2OC)cc(OC)c1	7	-0.7%	1%	15%
CCCc1cc(C(=O)Nc2ccccc2C(=O)OC)no1	-9	-1.2%	-3%	-16%
Cc1ccc(-c2nc(C(=O)O)cs2)cc1	2	6.4%	-10%	-8%
Cc1ccc(Nc2nnc(SCC(=O)Nc3ccccc3[N+](=O)[O-])s2)cc1	6	0.1%	6%	-13%
Cc1ccc(C2C(C#N)=C(N)SC(N)=C2C#N)o1	-1	·	·	-6%
CCOC(=O)c1nnc(-c2cccs2)nc1Oc1ccccc1C(=O)OC	-13	-2.5%	-4%	-1%
Cc1ccc(-n2nc3c(c2NC(=O)c2ccc4c(c2)OCO4)CS(=O)(=O)C3)cc1	·	4.4%	-14%	-7%
O=C(NNC(=S)NC(=O)c1cccs1)c1cccnc1	2	0.0%	-12%	0%
Cc1ccccc1CSc1nc2ccccc2c(=O)[nH]1	-1	1.1%	-6%	-1%
CC(NC(=O)C12CC3CC(CC(O)(C3)C1)C2)c1ccccc1 (stereo not given)	·	3.4%	2%	2%
COCCn1c(SCC(=O)Nc2cccnc2Cl)nc2ccccc21	·	0.5%	70%	·
Cc1ccc(NC(=O)C2Cc3ccccc3CN2C(=O)c2ccccc2)cc1Cl (stereo not given)	-10	0.9%	5%	-24%
Cn1nc(-c2ccccc2)c(CSc2ccccc2Cl)c1Cl	-1	-0.3%	4%	21%
COc1ccc(C(Nc2ccc(S(=O)(=O)NCC3CCCO3)cc2)C(=O)NC(C)(C)C)cc1OC (stereo not given)	-3	-6.0%	-2%	-6%
CC(=O)c1ccc(NC(=S)NCc2ccc(Cl)cc2Cl)cc1	-18	-1.9%	-30%	6%
Cc1ccc(S(=O)(=O)N2CCN(C(=O)c3cc(S(=O)(=O)N4CCOCC4)ccc3Cl)CC2)c(C)c1	·	-2.4%	16%	·
COc1ccc(CCn2c(C)cc3c(c2=O)C(c2ccc4c(c2)OCO4)C(C#N)=C(N)O3)cc1OC (stereo not given)	-20	0.0%	5%	-8%
CC1CCN(C(=O)CCCC(=O)N2CCC(C)CC2)CC1	·	-0.7%	-1%	-1%
O=C(CSc1nc2[nH]ncc2c(=O)[nH]1)Nc1ccc(OC(F)(F)F)cc1	·	4.6%	32%	·
CCCN(CC(=O)Nc1ccc(C(C)=O)cc1)CC(=O)Nc1ccccc1C	0	0.1%	-12%	4%
C/C(CC(=O)N(C(C)C)C(C)C)=N\NC(=O)COc1ccc(Cl)cc1Cl	-2	-0.8%	0%	3%
Cc1csc(NC(=O)CSc2ncnc3ccccc23)n1	·	-4.7%	1%	5%
Cc1ccccc1Cn1c(=O)c2c(nc3n2CCCN3Cc2ccccc2)n(C)c1=O	·	-1.5%	-9%	·
COc1ccc(-c2csc(N(CC3CCCO3)C(=O)c3ccccc3)n2)cc1 (stereo not given)	-4	0.4%	-23%	4%
O=C(CSc1nncs1)NCc1ccc2c(c1)OCO2	3	1.5%	11%	-17%
CC(C)=NNc1nc2c(c(=O)n(C)c(=O)n2C)n1CCc1ccccc1	-3	-1.4%	-5%	-5%
O=C(CCC(=O)N1CCN(c2ccccn2)CC1)Nc1nnc(C(F)(F)F)s1	2	0.7%	-4%	1%
CN1CCC2(CC1)Nc1nc(SCc3ccc(Cl)cc3)nn1C1=C2CN(C)CC1	5	2.4%	2%	-33%
CN1c2ccccc2C(C)(C)C12CC(CCl)=NO2 (stereo not given)	3	-6.2%	2%	-1%
Cc1cc(=O)oc2c3c(cc(OCC(=O)NC(Cc4ccc(Cl)cc4)C(=O)O)c12)OC(C)(C)CC3 (stereo not given)	·	0.3%	16%	0%
CO/N=C/CC(=O)c1ccc(OC)cc1	-5	0.3%	20%	-42%
CN1CCN(C2=Cc3ccccc3Sc3cc(F)ccc32)CC1	-4	5.9%	-12%	-1%
CC1(C)Cc2c(c(=S)nc(-c3ccccc3)n2CCCN2CCOCC2)CO1	6	-0.1%	-15%	2%
Cc1cccc(C(=O)NCC(=O)NCC2COc3ccccc3O2)c1 (stereo not given)	·	2.4%	7%	·
Cn1c(N)c(C(=O)COC(=O)C2CCCN2C(=O)c2cccs2)c(=O)n(C)c1=O (stereo not given)	11	1.4%	-8%	2%
O=C(O)c1cc(-c2ccc(N3CCOCC3)cc2)nn1-c1ccc(F)cc1	1	-0.5%	-12%	-18%
Cn1c(SCC(=O)c2ccc3c(c2)OCCO3)nnc1C(F)(F)F	1	-2.3%	5%	-15%

The list goes on.
SMILES	GLA inh pH 4.5	Rango complex inh	Rango release inh	miR-21 FLuc
Cc1ccc(C(C(=O)NC2CCCC2)N(Cc2cccs2)C(=O)CNC(=O)c2cccs2)o1 (stereo not given)	?	1.6%	4%	9%
COc1cc(C(C(=O)NCC2CCCO2)N(C(=O)Cn2nnc3ccccc32)c2ccc(OC)c(OC)c2)ccc1O (stereo not given)	·	0.4%	-9%	0%
O=C(c1cnn2ccccc12)N1CCN(C2CCCCC2)CC1	-3	-2.4%	-7%	-16%
CC(=O)[C@@H]1[C@@H]2C(=O)N(Cc3ccccc3)C(=O)[C@@H]2C2c3ccccc3C=CN21 (stereo not given in full)	-4	?	?	-7%
CC(=O)OCCCNc1cc(Sc2ccc(C)cc2)c2nonc2c1[N+](=O)[O-]	4	-0.6%	0%	0%
Cc1nnc(N/N=C/c2cccc(C(F)(F)F)c2)n1N	·	-0.6%	9%	-5%
CN(NC(=O)c1ccc(Cl)cc1)c1cccc(Cl)n1	9	2.8%	-1%	-6%
COc1cc([N+](=O)[O-])c(OC)cc1SCc1n[nH]c(=S)n1-c1ccc(C)cc1	-21	5.6%	2%	-7%
Cc1ccc(OCc2nnc(SCc3nc4ccccc4[nH]3)n2Cc2ccco2)cc1	-7	-0.3%	0%	17%
O=C1C=C(NCc2ccncc2)CC(c2ccccc2)C1 (stereo not given)	1	4.7%	0%	-6%
CCCNC(=O)c1ccccc1NC(=O)CN(c1ccccc1)S(=O)(=O)N(C)C	1	-3.0%	-5%	0%
CCN(CC)c1cc(C)c2cc(NC(=O)CNC(C)=O)ccc2n1	26	-2.2%	6%	-11%
CCOc1ccc(CNC(=O)NS(=O)(=O)c2ccc(OC)cc2)cc1	-2	?	-24%	-6%
O=C(O)C1CSC(c2ccccc2)N1C(=O)c1ccco1 (stereo not given)	1	0.8%	7%	-6%
C=C(C)CNC(=O)CCc1nnc(C2(c3ccc(Cl)cc3)CCC2)o1	-6	0.7%	7%	-46%
Cn1nnnc1SCC(=O)Nc1ccc2c(c1)OCO2	-14	0.4%	2%	-32%
COc1ccccc1C1CCN(C(=O)c2ccc(Cl)cc2)CC1	·	?	-19%	7%

Another view of part of the listing above.
CCOc1ccc(CNC(=O)NS(=O)(=O)c2ccc(OC)cc2)cc1
  GLA inh pH 4.5 = -2 | Rango complex inh = ? | Rango release inh = -24% | miR-21 FLuc = -6%

Cn1nnnc1SCC(=O)Nc1ccc2c(c1)OCO2
  GLA inh pH 4.5 = -14 | Rango complex inh = 0.4% | Rango release inh = 2% | miR-21 FLuc = -32%
